Assay outcomes as filed in PubChem.
StopGo reporter = FMDV 2A StopGo reporter, luciferase signal | human cells with a luciferase reporter of 2A StopGo recoding; control for the full effect not named in the record | Potency, µM (doses to about 57.9 µM), inactives show top-dose signal change, negative = less light | 1.2% of 410,000 active | AID 1159524; active = well fitted falling curve with a large enough effect; inconclusive = small, poorly fitted or top-dose-only effect; inactive = no such curve, though single readings can be large or run the other way; tested in HEK293T cells; also: % is scaled to controls: 0 for no effect and ±100 for the full control effect; nearly all actives have a fitted effect of over 45% in size; luciferase light after 4 h
LASV entry inh = blocks Lassa virus binding to or entry into cells. Lassa virus pseudotype entry inhibition, cell reporter; control for the full effect not named in the record. Potency, µM (titrated, usually from 37.9 µM), for inactives: at the highest dose activity change, negative = inhibition, usual class: inhibitors. 1.2% of 300,000 active; active means well fitted inhibition curve with a large enough effect; inconclusive means small, poorly fitted or top-dose-only effect, or effect the other way; inactive means flat fitted curve, though single readings scatter; tested in HEK293 cells; also: % is scaled to controls: 0 for no effect and ±100 for the full control effect; nearly all actives have a fitted effect of over 50% in size; luciferase read-out
NS1 function inh = inhibitors of influenza NS1 protein function; AID 2326; S. cerevisiae slowed by influenza A NS1, growth recovery by OD600; 0.4% of 270,000 active; Potency, µM (doses to about 46.1 µM), for inactives: at the top dose activity, positive = more growth; also: actives are rising curves; nearly all actives have a fitted effect of over 50% in size
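Recovery from NS1-induced slow growth read by OD600 in budding yeast switched to galactose assay medium (pH 6.0, -URA) at 1:100 dilution. Compound 23 nl per well; the matching strain lacking NS1 serves as control.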
Cruzain Triton = blocks cruzain activity in presence of Triton detergent | P25779 | purified cruzain, Z-FR-AMC fluorescence, 0.01% Triton | Potency, µM, for the others: max response, negative = inhibition, usual class: inhibitors | 0.43% of 200,000 active; active = well fitted curve in the direction sought with a large enough effect; inconclusive = small, poorly fitted or top-dose-only effect, or another doubt; inactive = no such curve, though single readings can be large; an effect the other way counts as inactive or inconclusive;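 also: plate controls were neutral wells for no effect and buffer without enzyme for full effect; nearly all actives have a fitted effect of over 40% in size; top concentration of the series not given in the record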
Target sequence (P25779 123-467 limits assumed): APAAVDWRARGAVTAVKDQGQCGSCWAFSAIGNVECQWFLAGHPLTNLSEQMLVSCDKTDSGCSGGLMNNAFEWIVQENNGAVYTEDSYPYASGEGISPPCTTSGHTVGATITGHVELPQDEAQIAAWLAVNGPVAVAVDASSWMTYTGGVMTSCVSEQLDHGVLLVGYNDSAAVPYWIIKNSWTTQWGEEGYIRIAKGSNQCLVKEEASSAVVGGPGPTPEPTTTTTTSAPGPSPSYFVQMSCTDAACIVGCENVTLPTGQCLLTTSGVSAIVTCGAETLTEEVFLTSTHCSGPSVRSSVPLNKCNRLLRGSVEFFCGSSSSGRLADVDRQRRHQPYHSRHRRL
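In this qHTS format, compounds are incubated with 1.5 nM cruzain for 15 min at room temperature before 2 uM Z-FR-AMC is added. Release of AMC is followed at 360/450 nm, and progress is taken as the 60 s fluorescence difference.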
SARS PLP yeast = blocks SARS-CoV papain-like protease in a yeast assay; Potency, µM (titrated, usually from 32.9 µM), for the others: top-dose activity, positive = growth rescue; S. cerevisiae expressing SARS-CoV PLpro, growth rescue; control for the full effect not named in the record; 0.19% of 330,000 active; AID 485353; also: 0% is about no effect; nearly all actives have a fitted effect of over 55% in size; growth read by luminescence after 48 h
MARV entry inh = blocks Marburg virus binding to or entry into cells. Potency, µM (titrated, usually from 37.8 µM), for the others: at the highest dose activity change, negative = inhibition, usual class: inhibitors. 1.8% of 300,000 active. Marburg virus pseudotyped entry inhibition, cell reporter; control for the full effect not named in the record; about a third of the inactives were read at about 46 µM; active = well fitted inhibition curve with a large enough effect; inconclusive = small, poorly fitted or top-dose-only effect, or effect the other way; inactive = flat fitted curve, though single readings scatter; tested in HEK293 cells; about a fifth of its hits are not listed in these tables; also: % is scaled to controls: 0 for no effect and ±100 for the full control effect; luciferase read-out
RE007 growth inh = less growth of the S. pombe RE007 Vpr strain; AID 651644; S. pombe RE007 Vpr strain, BacTiter-Glo ATP luminescence, 24 h; control for the full effect not named in the record; 0.21% of 360,000 active; Potency, µM (top dose mostly 92.2 µM), inactives show at the highest dose activity change, negative = less growth; active = well fitted falling curve with a large enough effect; inconclusive = small, poorly fitted or top-dose-only effect; inactive = no such curve, though single readings can be large or run the other way;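 also: % is scaled to controls: 0 for no effect and ±100 for the full control effect; nearly all actives have a fitted effect of over 50% in size; the assay follows cell death caused by Vpr and the record does not say whether a fall means rescue or toxicity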
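Fission yeast strain RE007, carrying one chromosomally integrated HIV-1 vpr copy, was seeded at OD 0.01 in PMG+AL medium with 23 nL pinned compound. After 24 h at 30 °C and 99% humidity, viability was read by BacTiter-Glo luminescence.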
Cruzain noTriton = blocks cruzain activity in detergent-free assay | P25779 | purified cruzain, Z-FR-AMC fluorescence, no detergent | Potency, µM, without a hit: max response, negative = inhibition, most hits filed as inhibitors | 2.3% of 200,000 active; active = well fitted curve in the direction sought with a large enough effect; inconclusive = small, poorly fitted or top-dose-only effect, or another doubt; inactive = no such curve, though single readings can be large; an effect the other way counts as inactive or inconclusive;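 also: plate controls were enzyme without inhibitor for no effect and buffer without enzyme for full effect; nearly all actives have a fitted effect of over 40% in size; top concentration of the series not given in the record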
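Purified cruzain at 1.5 nM, pre-incubated 15 min with compound at room temperature in 100 mM sodium acetate pH 5.5, 5 mM DTT, 0.00005% Triton X-100. Reaction started with 2 uM Z-FR-AMC; AMC fluorescence increase over 60 s gives rate.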
The depositor's hits bear a star; ? = inconclusive; nt = no result given; & = joins results of further samples; [ ] = remark or other dose. Unless noted, calls follow the shape of the dose curve; as a rule, active means well fitted rising curve with a large enough effect; inconclusive means small, poorly fitted or top-dose-only effect; inactive means no such curve, though single readings can be large or run the other way. Potency is read from the fitted curve at half-maximal effect.

| molecule | StopGo reporter | LASV entry inh | NS1 function inh | Cruzain Triton | SARS PLP yeast | MARV entry inh | RE007 growth inh | Cruzain noTriton |
| --- | --- | --- | --- | --- | --- | --- | --- | --- |
| CCO[C@H]1OC(C(=O)N2CCCCCCC2)=C[C@@H](c2coc3ccccc3c2=O)[C@@H]1CCCO | -12% | nt | -3% | nt | -2% | nt | 1% | nt |
| Clc1ccccc1C1=Nn2c(nnc2-c2ccncc2)SC1 | -25% | 8% | -30% | -3.4% | 0% | -20% | 12% | -3% |
| CCC(C)[C@H](NC(=O)OC(C)(C)C)C(=O)N/N=C/C1=Cc2ccccc2OC1 (stereo partly specified) | 12% | ? | 24% | -3.8% | -20% | ? | 12% | -1% |
| CCOC(=O)CNC(=O)O[C@@H]1C(=O)c2cc(OC)ccc2O[C@H]1c1ccc(OC)c(Br)c1 | nt | ? | nt | -0.8% | nt | 7%&7%&7%[14.2 µM] | nt | -2% |
| O=[N+]([O-])c1ccc(S(=O)(=O)N2CCN(c3ccnc4cc(Cl)ccc34)CC2)cc1 | ? | -21%[46.1 µM] | 0% | nt | 3% | ? | -13% | nt |
| O=C(NC(Cc1ccccc1)c1ccc2c(c1)OCCCO2)c1ccc(F)cc1 (stereo unspecified) | 4% | -23% | 18% | -2.5% | 10% | -5% | 11% | ? |
| CCCC1(C(=O)OC)NC(c2ccc(OC)c(OC)c2)C2C(=O)N(c3cccc(C(C)=O)c3)C(=O)C21 (stereo unspecified) | -23% | 2%[46.1 µM] | 9% | nt | 3% | 0%[46.1 µM] | 2% | nt |
| CCCCCCCCOC(=O)c1nc(Cl)c(Cl)c(N)c1Cl | -11% | ? | -8% | -6.8% | -46% | -16% | -13% | -19% |
| COCCNC(=O)Cn1c(=O)n(C)c2ccccc21 | -8% | -1% | -6% | 4.8% | -3% | -7% | 4% | 8% |
| CC(C)(C)OC(=O)NNC1CC(=O)N(c2ccccc2F)C1=O (stereo unspecified) | -21% | 12% | -2% | 3.0% | 1% | 5% | 1% | 10% |
| Oc1cccnc1CN1CCCCC1 | 6% | 5%[46.1 µM] | -2% | -1.6% | nt | 3%[46.1 µM] | 3% | 1% |
| O=C(Cn1c(=O)oc2cc(S(=O)(=O)N3CCCC3)ccc21)N1CCCC1 | -1% | nt | -2% | 1.3% | 4% | nt | 2% | 1% |
| CCN(CC)C(=O)CSc1nc2ccsc2c(=O)n1CCCC(=O)NCCc1ccc(S(N)(=O)=O)cc1 | 0% | -4% | nt | nt | 5% | 8% | -5% | nt |
| CCN(CC)S(=O)(=O)c1ccc(C(=O)NCCc2ccccn2)cc1 | 48%[activator] | ? | nt | nt | -2% | 15% | -4% | nt |
| CCOC(=O)c1ccc(-c2ccc(/C=N/NC(=O)CN(c3cccc(C)c3)S(C)(=O)=O)o2)cc1 | 13% | 17% | -28% | -4.1% | 11% | 24% | -7% | 1% |
| Cc1[nH][nH]c(=O)c1C(c1ccc2c(c1)OCO2)c1c(C)[nH][nH]c1=O | ? | nt | -4% | nt | -5% | nt | 22% | nt |
| CC(C)N1CCC(=NNc2ccc(S(=O)(=O)N3CCOCC3)cc2[N+](=O)[O-])CC1 | -7% | -4% | 27% | -2.3% | -18% | 9% | 4% | -5% |
| CCCC1(CCO)C(=O)NC(=S)NC1=O | -4% | -6% | nt | nt | nt | 2% | -8% | nt |
| O=C(OC1CCCCC1=O)c1ccc(S(=O)(=O)Nc2ccccc2)cc1 (stereo unspecified) | -12% | 16%[46.1 µM] | nt | nt | -1% | 30%[46.1 µM] | -7% | nt |
| Cn1c(=O)n(C)c2cc(NC(=O)CCl)ccc21 | ? | 18µM* | -7% | 4.2% | 10µM* | ? | 4% | -1% |
| Cc1cc(C(=O)Nc2ccc(F)cc2)c2ccccc2n1 | -12% | 27% | 5% | nt | -3% | -1% | 6% | nt |
| Cn1c(-c2sccc2OCc2ccccc2)n[nH]c1=S | -13% | -5% | 17% | 2.9% | ? | -3% | 11% | 0% |
| O=S1(=O)CCO[C@H]2Cc3ccccc3[C@H]2N1Cc1cccc(Cl)c1 | 0% | nt | -29% | nt | -2% | nt | 5% | nt |
| CN(C(=O)COC(=O)CNC(=O)c1ccc(Cl)cc1Cl)c1ccccc1 | -2% | 0% | nt | nt | 2% | 2%[46.1 µM] | 15% | nt |
| COC(=O)C/C=C/[C@@H](C)[C@@H](/C=N/O[C@H](C)c1cn([C@@H]2COC[C@H]2O)nn1)NS(=O)(=O)c1ccc(C)cc1 | nt | ? | -3% | -0.2% | -7% | -14% | nt | 9% |
| Cn1c(O)c(/C=N/N2CCOCC2)c(=O)n(-c2ccccc2)c1=S | -6% | -26% | 1% | nt | 1% | 2% | 2% | nt |
| COc1cccc(N2CC(C(=O)Nc3nnc(SCCN4CCOCC4)s3)CC2=O)c1 (stereo unspecified) | 2% | 15%[46.1 µM] | 2% | nt | 2% | -29%[46.1 µM] | -6% | nt |
| COc1ccc(NC(=O)c2cccc(N3C(=O)NC4CC3(C)Oc3ccccc34)c2)cc1 (stereo unspecified) | -21% | -15% | 6% | -11% | 6% | -21% | 6% | 14% |
| CCC(=O)OC1(C)C(=O)C=C2C=C(c3ccsc3)OC=C2C1=O (stereo unspecified) | -8% | nt | 10% | -5.5% | 1% | 14%&14%[14.2 µM] | 11% | -4% |
| CCOc1cc(/C=C/c2ccc3cccc([N+](=O)[O-])c3n2)ccc1O | ? | ? | 11% | -3.9% | -1% | ? | -10% | -11% |
| N/C(=N\O)c1ccncc1 | -11% | ? | 7% | nt | 0% | -10%[46.1 µM] | -20% | nt |
| O=C(C1CCN(S(=O)(=O)N2CCC3(CC2)OCCO3)CC1)N1CCC(Cc2ccccc2)CC1 | nt | -11% | -4% | 0.4% | 0% | 0%&13% | -11% | ? |
| CN(C)CC1CSCCC1(O)c1ccccc1Cl (stereo unspecified) | -12% | -13% | 3% | 0.2% | 17% | -3% | 2% | 1% |
| CCCCNC(=O)[C@H]1C[C@H]1[C@@H](O)[C@H](CO)NC(=O)[C@H](COCc1ccccc1)NC(=O)OC(C)(C)C | 5% | nt | -4% | nt | 3% | nt | -3% | nt |
| O=C(Nc1ccc(N2CCOCC2)cc1)C1CCCCC1 | 57%[activator] | 26% | 0% | 0.6% | nt | 0% | 4% | 10% |
| CCn1c(SCC(=O)NCc2ccco2)nnc1C1CCCC1 | -15% | nt | 1% | nt | -2% | nt | -14% | nt |
| CC(C)(C)c1ccc2c(c1)OC(C(=O)N/N=C\c1ccc[nH]1)CO2 (stereo unspecified) | ? | nt | -17% | nt | -11% | nt | -14% | nt |
| CC(=O)[C@H]1CCC2C3CC=C4C[C@@H](O)CC[C@]4(C)C3CC[C@@]21C (stereo partly specified) | -15% | 12%[46.1 µM] | nt | nt | -7% | 11%&11%[46.1 µM] | 15% | nt |
| Cc1ccc(-n2nnnc2SCC(=O)Nc2nc(-c3ccc(F)cc3)cs2)cc1C | nt | -22% | 5% | 3.5% | -33% | ? | -11% | ? |
| CCN(CC(=O)Nc1cc(Cl)ccc1C)C(=O)CCOc1ccccc1C | ? | -2% | 1% | nt | -2% | -27% | 20% | nt |
| CC(=O)N1c2ccccc2NC2=C(C(=O)CCC2)C1c1ccco1 (stereo unspecified) | -16% | -17% | nt | nt | 0% | -20%[46.1 µM] | 9% | nt |
| CCc1cc2cc(C)ccc2nc1SCC(=O)Nc1cc(C)on1 | -2% | 14% | 12% | 1.6% | -16% | -16% | -2% | -12% |
| Cc1cccc(C)c1NC(=O)CSc1ncc2c(n1)-c1ccc(Cl)cc1N(Cc1ccccc1)S2(=O)=O | -11% | 6%[46.1 µM] | nt | 1.6% | nt | nt | nt | -12% |
| CCn1c(SC(C)C(=O)O)nc2sc3c(c2c1=O)CCC3 (stereo unspecified) | -21% | 21% | 9% | -1.8% | 1% | 10%[46.1 µM] | -3% | -7% |
| CC1CCc2cc(F)cc3c(O)c(C(=O)NCCN(C)C)c(=O)n1c23 (stereo unspecified) | -15% | nt | 0% | nt | 0% | nt | -11% | nt |
| CCN(CC)S(=O)(=O)c1cccc(-c2cn3cc(C)ccc3n2)c1 | -8% | -14% | -7% | -4.0% | -8% | -37% | -12% | 5% |
| CCOC(=O)c1c(S(=O)(=O)NCC(=O)Nc2ccc(C(C)=O)cc2)c(C)n(C)c1C | 33%[activator] | -7%[46.1 µM] | nt | 0.3% | nt | nt | nt | -15% |
| COc1cccc(C(c2nnnn2Cc2ccccc2)N2CCN(C3CCCC3)CC2)c1OC (stereo unspecified) | -24% | -18% | -1% | 2.3% | 0% | ? | -6% | -8% |

One compound at a time (already shown):
O=[N+]([O-])c1ccc(S(=O)(=O)N2CCN(c3ccnc4cc(Cl)ccc34)CC2)cc1 in the list: StopGo reporter: ?; LASV entry inh: -21%[46.1 µM]; NS1 function inh: 0%; Cruzain Triton: nt; SARS PLP yeast: 3%; MARV entry inh: ?; RE007 growth inh: -13%; Cruzain noTriton: nt
CCC(C)[C@H](NC(=O)OC(C)(C)C)C(=O)N/N=C/C1=Cc2ccccc2OC1 (stereo partly specified) in the list: StopGo reporter: 12%; LASV entry inh: ?; NS1 function inh: 24%; Cruzain Triton: -3.8%; SARS PLP yeast: -20%; MARV entry inh: ?; RE007 growth inh: 12%; Cruzain noTriton: -1%

Further records follow.
| molecule | StopGo reporter | LASV entry inh | NS1 function inh | Cruzain Triton | SARS PLP yeast | MARV entry inh | RE007 growth inh | Cruzain noTriton |
| --- | --- | --- | --- | --- | --- | --- | --- | --- |
| Cc1cc(C)c(NC(=S)N(C)C)cc1C | -7% | nt | -8% | nt | 1% | nt | -5% | nt |
| CCOc1ccccc1NC(=O)CSc1nccn1-c1ccccc1 | -18% | 12% | -29% | -2.8% | -13% | -10% | 19% | ? |
| CC1CCCCN1S(=O)(=O)c1ccc(C(=O)N2CCOCC2)cc1 (stereo unspecified) | 1% | 8%[46.1 µM] | 22% | nt | 3% | 4%[46.1 µM] | -6% | nt |
| Cc1ccc(N(CC(=O)NC(C)(C)C)C(=O)CCC(=O)Nc2nccs2)cc1C | -7% | -3%[46.1 µM] | 5% | nt | 0% | -2%[46.1 µM] | 2% | nt |
